Screening data deposited in PubChem by several laboratories.
CBX7 inh: inhibitors of human CBX7 binding to H3K27me3 peptide; O95931; AlphaScreen His6-CBX7 / biotin-H3K27me3 peptide binding; active compounds read low; normalised signal (fraction of DMSO) (concentration not given with the values); 66,000 tested, 1.1% active; in the data active means normalised signal below about 0.5;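 further: 100 nL library stock added to about 20 µL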
Target sequence (O95931 whole entry, looked up): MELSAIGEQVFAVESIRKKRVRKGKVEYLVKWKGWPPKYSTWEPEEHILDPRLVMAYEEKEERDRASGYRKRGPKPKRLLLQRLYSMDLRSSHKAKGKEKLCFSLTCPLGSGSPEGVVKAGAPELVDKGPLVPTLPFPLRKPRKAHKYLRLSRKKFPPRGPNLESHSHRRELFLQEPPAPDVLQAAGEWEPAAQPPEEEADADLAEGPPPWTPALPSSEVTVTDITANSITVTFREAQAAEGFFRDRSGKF
CBX7 inh z-score: further read-out of CBX7 inh, marked with its call; z-score; measured here: z-score of CBX7 signal; some inactives read as strong as hits; reference of the scale not given here;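 same signal on another scale; lower means less binding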
* hit, by the source's call; & = joins results of further samples. Some of the compounds tested; rates above refer to the full screens.

entry	structure	CBX7 inh	CBX7 inh z-score
1	O=C(Cn1ncc2c1-c1ccccc1OC2)NCCCN1CCN(c2ccccc2F)CC1	0.92	-2.3
2	CCOC(=O)c1sc(NC(=O)COc2ccc(C(C)(C)C)cc2)nc1C	1.1	1.1
3	Cc1ccc(CN2C(=O)CSc3ccc(C(=O)NC4CC4)cc32)cc1	1	0.76
4	COCCNC(=O)c1ccc2c(c1)N(Cc1ccccc1C)C(=O)c1ccccc1S2	1	0.66
5	Cc1ccc(NC(=O)CC2Nc3ccccc3N(CC(=O)Nc3c(C)cccc3C)C2=O)cc1 (centres undefined)	1	0.96
6	Cc1cc(NC(=O)CSc2nnc(-c3ccc(Cl)s3)o2)no1	1.1	1
7	Cc1ccc(-c2nc(-c3nonc3N)no2)cc1	1	0.26
8	COc1ccc(CCNC(=O)C2(C)CCC(=O)N2Cc2ccc(F)cc2)cc1OC (centres undefined)	1.1	2.2
9	CCCOc1ccc(C2C(=O)N(C3CCCCCC3)CC(=O)N2C2CCCC2)cc1OC (centres undefined)	0.76	-0.99
10	CCOc1ccc2nc(N3CCC(C(=O)NC4CCCCC4)CC3)sc2c1	1	1.6
11	CCCCc1ccc(NC(=O)Cc2nn(C)c(=O)c3ccccc23)cc1	1.1	2
12	Cc1ccc(NC(=O)CCc2nc(-c3cccs3)no2)nc1	1	1.1
13	O=C(Nc1ccc(F)cc1F)c1cnc2ccccn2c1=O	1	1.1
14	CC1CCN(C(=O)c2cc3ccccc3oc2=O)CC1	1.1	1.6
15	CCOC(=O)C1CCN(c2c(N3CCN(c4ccccc4F)CC3)c(=O)c2=O)CC1	1	0.44
16	CCC1=Nc2cc(C(=O)NC)ccc2Sc2ccc(C)cc21	0.89	-1.5
17	c1ccc(Nc2c(-c3ccc(N4CCOCC4)cc3)nc3ccccn23)cc1	1.1	1.4
18	O=C(NC1CCCCC1)C1CCN(c2nc3cc(Cl)ccc3s2)CC1	1.1	2.6
19	COC(=O)CNC(c1ccccc1)c1cc(Br)ccc1NC(=O)c1ccc(Br)cc1 (centres undefined)	0.96	-0.15
20	CCCN(CCC)S(=O)(=O)c1ccc2c(c1)CCN2C(=O)C1CC1	0.91	-0.35
21	CC(C)Cn1cc(C(=O)NCCN2CCOCC2)c2c3ccccc3n(C)c2c1=O	1	0.83
22	Cc1cc(C)c(NC(=O)C2CCCN2S(=O)(=O)c2cccc3cccnc23)c(C)c1 (centres undefined)	0.95	-1.5
23	Cc1ccc(-c2cc(-c3ccccc3Cl)[nH]n2)c(O)c1	1	0.86
24	O=C(Cn1cc(S(=O)(=O)c2ccccc2)c(=O)c2cc(Cl)ccc21)Nc1ccc2c(c1)OCO2	1	0.76
25	Cc1ccc(Cn2nc(C)c(NC(=O)c3cc(-c4ccc(Br)cc4)on3)c2C)cc1	1.2	1.3

Next section.
entry	structure	CBX7 inh	CBX7 inh z-score
26	Cc1nc2c(cnn2-c2ccccc2)c(=O)n1-c1ccccc1Br	0.99	-0.5
27	Cc1onc(-c2c(Cl)cccc2Cl)c1C(=O)NCc1ccc(F)cc1	1	0.35
28	Fc1ccc(Nc2c(-c3ccc(Cl)cc3)nc3ncccn23)cc1	1.2	2.6
29	CCCCCc1ccc(-c2ccc(-c3ccc(F)cc3)nc2)cc1	1.1	1.7
30	Cc1ccc(CCNC(=O)CN(C)S(=O)(=O)c2ccc3c(c2)n(C)c(=O)c(=O)n3C)cc1	0.94	-0.52
31	O=C(c1cnc(Nc2ccc(F)cc2)c2ccccc12)N1CCCC1	1.1	2.5
32	CCCCSc1oc(-c2cccs2)nc1S(=O)(=O)c1ccccc1	1	0.036
33	CCn1cc(CNC(=O)c2cc(-c3cccc(C)c3)nc3ccccc23)cn1	1.2	2
34	CCc1ccc(CNC(=O)C2CCC(=O)N2C2CCCCC2)cc1 (centres undefined)	1.1	3.7
35	O=C(Nc1nnc(-c2ccccc2SCc2ccc(Cl)cc2)s1)c1ccc(F)cc1	1	-0.0032
36	CCCCSCCCNC(=O)C(C)C1Sc2ccccc2N(Cc2cc(C)ccc2C)C1=O (centres undefined)	0.78	-4.3
37	Cc1oc(-c2cccc(Cl)c2)nc1CN1CCCC(C(=O)N2CCOCC2)C1 (centres undefined)	1	0.36
38	COc1ccc(C2CC(=O)N(CC(=O)Nc3cc(C)cc(C)c3)c3ccccc3S2)cc1OC (centres undefined)	1.1	1
39	O=C(CN1C(=O)COc2ccc(S(=O)(=O)N3CCOCC3)cc21)NCCCN1CCCC1	1	0.62
40	CC(=O)N1CCc2cc(S(=O)(=O)NCC(=O)N3CCN(c4cccc(C)c4)C(C)C3)ccc21 (centres undefined)	0.97	-1.1
41	CCOc1ccc(CNC(=O)C2CCN(c3nn4c(=O)cc(C)nc4s3)CC2)cc1	1.1	1.3
42	CCOC(=O)c1cnc2c(C)cc(Cl)cc2c1Nc1ccc(C(=O)O)cc1	0.89	-0.48
43	Cc1ccccc1CN1C2=NC(=O)CN2c2ccccc21	1.1	1.5
44	CCCCN(C)c1nc(-c2ccc(Cl)cc2Cl)nc2ccccc12	0.55	-0.54
45	O=C(O)c1ccc2c(c1)NC(=O)C(CS(=O)(=O)Cc1c(F)cccc1Cl)N2 (centres undefined)	1	0.62
46	CCc1ccc(CNC(=O)CCn2nc(-c3ccccc3)ccc2=O)cc1	0.99	-0.35
47	COc1ccc(NC(=O)C2(N3C(=O)CC3c3ccc(OC(C)C)cc3)CCCCC2)cc1 (centres undefined)	0.86	-2.4
48	COCCNC(=O)CSc1nc(-c2ccc(Br)cc2)[nH]c1-c1ccc(C)cc1	0.96	-0.76
49	CC(=O)Nc1ccc(N2C(=O)CC(N3CCCCCC3)C2=O)cc1 (centres undefined)	1.1	2.4
50	CC1(C)CC(=O)C2=C(C1)NC(=O)CC2c1ccccc1C(F)(F)F (centres undefined)	0.97	-0.34

Compounds 26–27, reprinted for reference:
entry	structure	CBX7 inh	CBX7 inh z-score
26	Cc1nc2c(cnn2-c2ccccc2)c(=O)n1-c1ccccc1Br	0.99	-0.5
27	Cc1onc(-c2c(Cl)cccc2Cl)c1C(=O)NCc1ccc(F)cc1	1	0.35

Individual results from the entries so far:
entry 28 @ CBX7 inh z-score = 2.6
entry 42 @ CBX7 inh z-score = -0.48
entry 29 @ CBX7 inh = 1.1
entry 32 @ CBX7 inh z-score = 0.036
entry 31 @ CBX7 inh = 1.1
entry 47 @ CBX7 inh = 0.86
entry 40 @ CBX7 inh z-score = -1.1

Following part:
entry	structure	CBX7 inh	CBX7 inh z-score
51	Cc1ccc(-c2csc3ncn(Cc4csc(-c5ccc(Cl)cc5)n4)c(=O)c23)cc1	1	1.3
52	Cc1cccc(C)c1NC(=O)C1CCCN(CCCc2ccccc2)C1 (centres undefined)	1	0.31
53	Cc1cc(N2CCN(c3ccccc3)CC2)n2nc(C)c(-c3ccc(Cl)cc3)c2n1	1.1	1.1
54	O=C(Nc1ccc2c(c1)OCO2)c1cnc2sccn2c1=O	0.67	-3.9
55	COc1ccc(CCNC(=O)Cn2ccc3ccccc3c2=O)cc1OC	1.1	1.1
56	CC(C)CCNC(=O)c1ccc2c(c1)N(Cc1ccccc1F)C(=O)c1ccccc1S2(=O)=O	0.96	-0.99
57	Cn1c(=O)cc(OCCCC(=O)Nc2cccnc2)c2ccccc21	0.89	-1.7
58	COc1ccc(NC(=O)Cn2cc(S(=O)(=O)c3ccccc3)c(=O)c3cc(F)ccc32)cc1	1	0.093
59	CCN(c1cccc(C)c1)C(C(=O)NC1CCCCC1)c1ccccc1 (centres undefined)	1	0.32
60	CC(=O)Nc1ccc(-c2nc3cc(C)cc(C)c3o2)cc1	0.87	-1.5
61	COc1cccc(-c2nc(CS(=O)(=O)CC(=O)Nc3c(C)cc(C)cc3C)c(C)o2)c1	0.98	-0.68
62	COCCNC(=O)c1c[nH]c2ccc(S(=O)(=O)Nc3cc(C)cc(C)c3)cc2c1=O	0.94	-1.1
63	CCC(=O)N1CCc2cc(S(=O)(=O)Nc3cccc(CC)c3)ccc21	0.88	-2.3
64	Cc1ccn2c(-c3csc(Nc4ccccc4Cl)n3)c(C)nc2c1	0.83&0.84	-3.2&-0.18
65	Clc1ccc2c(Nc3ccc4c(c3)OCCO4)c3c(nc2c1)CCCC3	0.79	-3.2
66	O=C(NCc1cccnc1)c1ccc2c(c1)N(Cc1ccccc1)C(=O)c1ccccc1S2=O (centres undefined)	0.94	-1.6
67	Cc1cccc(-c2nc(-c3ccccc3)c(-c3ccc(Cl)cc3)[nH]2)c1	0.99	-0.21
68	O=C(CSc1nnc2c(n1)[nH]c1ccccc12)Nc1nc2ccccc2s1	1.3	0.58
69	CCOc1ccc(C(=O)Nc2c3c(nn2-c2ccc(F)cc2)CSC3)cc1OCC	1.1	1.8
70	O=C(CN1C(=O)CCSc2ccccc21)NCCC1=CCCCC1	1	1.4
71	Cc1ccc(-c2csc(Nc3ccc(F)cc3)n2)cc1	0.94	-1.3
72	CC1CCCCN1c1nc(-c2ccncc2)nc2ccccc12 (centres undefined)	1	0.24
73	COc1ccc(Nc2nc(-c3cccnc3)nc3ccccc23)cc1	0.85	-2.1
74	CC(C)(C)c1ccc2c(c1)N(CC(=O)NC1CCCCCC1)C(=O)CO2	0.97	-0.54
75	CCOC(=O)c1nnn(-c2nonc2N)c1CN1CCN(c2ccc(F)cc2)CC1	1	-0.11

Compounds from the list above that have an NH in an aromatic ring:
entry	structure	CBX7 inh	CBX7 inh z-score
23	Cc1ccc(-c2cc(-c3ccccc3Cl)[nH]n2)c(O)c1	1	0.86
48	COCCNC(=O)CSc1nc(-c2ccc(Br)cc2)[nH]c1-c1ccc(C)cc1	0.96	-0.76
62	COCCNC(=O)c1c[nH]c2ccc(S(=O)(=O)Nc3cc(C)cc(C)c3)cc2c1=O	0.94	-1.1
67	Cc1cccc(-c2nc(-c3ccccc3)c(-c3ccc(Cl)cc3)[nH]2)c1	0.99	-0.21
68	O=C(CSc1nnc2c(n1)[nH]c1ccccc12)Nc1nc2ccccc2s1	1.3	0.58

Additional results follow.
entry	structure	CBX7 inh	CBX7 inh z-score
76	COc1ccc(-c2nc3ccccn3c2Nc2ccc(C)cc2)cc1	1	0.09
77	COc1ccc(NC(=O)C2CCCN(S(=O)(=O)c3cccs3)C2)cc1OC (centres undefined)	1	0.36
78	Cc1cc(C(=O)Nc2ccccc2C(F)(F)F)no1	1.1	1.6
79	CCOc1ccccc1CNC(=O)c1cc(=O)[nH]c2ccc(S(=O)(=O)N3CCC(C)CC3)cc12	0.96	-0.83
80	O=C(CCc1ccccc1)Nc1ccc2nc(SCC(=O)N3CCOCC3)sc2c1	0.89	-1.2
81	O=C(CCc1nc(-c2ccccc2F)no1)Nc1ccc(Oc2ccccc2)cc1	0.95	-0.81
82	CCCCN(C)CCCNC(=O)CCn1nc(-c2ccc(Cl)cc2)ccc1=O	1	0.091
83	Cc1cc(C)cc(NS(=O)(=O)c2ccc3[nH]cc(C(=O)NCCCOC(C)C)c(=O)c3c2)c1	0.9	-1.9
84	CCc1cc(C)cc(OCC(O)Cn2cnc3ccccc32)c1 (centres undefined)	0.88	-3
85	Cc1c(C(=O)Nc2ccc(F)cc2)oc2ccc(S(=O)(=O)N3CCC4(CC3)OCCO4)cc12	1	0.29
86	CCCCCC12CCC(O)(CC1)CC2O (centres undefined)	1	-0.015
87	CCCCNC(=O)c1c[nH]c2ccc(S(=O)(=O)N3CCOCC3)cc2c1=O	1.1	1.6
88	OC1CCCc2c1[nH]c1ccc(C(F)(F)F)cc21 (centres undefined)	1.1	1.9
89	Cc1nc2cc(-c3cccc(F)c3)nn2c(C)c1CCC(=O)Nc1cccc(Cl)c1C	1	0.92
90	COc1ccc(-c2noc(COc3ccccc3C)n2)cc1OC	1.1	2.1
91	Cc1ccc(/C=C/c2nc3ccccc3n2S(=O)(=O)c2cccc(Cl)c2)cc1	1	2.2
92	COc1cc(C2CC(=O)NC3=C2C(=O)CCC3)ccc1OCc1ccccc1 (centres undefined)	1	-0.012
93	Cn1cc(Cl)c(C(=O)N(Cc2ccccc2)c2ccccn2)n1	0.67	-3.2
94	COc1nonc1NC(=O)CCCCCN1C(=O)c2ccccc2C1=O	1	0.15
95	CCc1ccccc1NC(=O)CCc1nc(-c2ccccc2F)no1	1	1.3
96	Cn1nc(-c2ccccc2F)c2cc(C(=O)NC3CCN(Cc4ccccc4)CC3)sc21	0.95	-0.9
97	Cc1cccc(N2CCN(S(=O)(=O)c3ccc4c(c3)CCN4C(=O)C3CCC3)CC2C)c1 (centres undefined)	1.1	1.8
98	COc1ccc2nc(N3CCC(C(=O)NC4CCCCC4)CC3)sc2c1	0.96	-0.41
99	Cc1cc(NC(=O)c2cc(Cl)ccc2Cl)ccc1NC(=O)c1ccccc1	1.3	2.1
100	COc1ccc(-c2nc3cc(N)ccc3o2)cc1Br	1.1	3.4

The list continues.
entry	structure	CBX7 inh	CBX7 inh z-score
101	Cc1ccc(-c2cc(C(=O)Nc3ccccc3Br)c3ccccc3n2)cc1C	0.99	-0.3
102	Cc1cccc(C(=O)Nc2sc3c(c2C(=O)N2CCCCCC2)CCC(C)C3)c1 (centres undefined)	0.91	-1.1
103	O=C(Nc1ccc(-c2nc3ccccc3s2)cc1)c1ccc(S(=O)(=O)N2CCCCCC2)cc1	1.3	2.3
104	Cc1ccc(F)cc1NC(=O)c1sc2ncnc(N3CCN(c4ccccc4)CC3)c2c1C	1.3	3.4
105	COc1ccc(C(=O)Nc2ccc(S(=O)Nc3nccs3)cc2)cc1 (centres undefined)	0.89	-2.8
106	CCCCNC(=O)c1ccc2c(c1)N(CC)C(=O)c1ccccc1S2=O (centres undefined)	1	-0.085
107	COc1ccccc1N1CCN(c2ncc(C(=O)Nc3ccc(C(F)(F)F)cc3)c3ccccc23)CC1	0.93	-1.1
108	CCCC(=O)NC(C)c1nc2ccccc2n1Cc1cc(C)ccc1C (centres undefined)	1	0.55
109	COc1ccc(CCNC(=O)CN2CCN(Cc3ccc(Cl)cc3)C2=O)cc1OC	0.89	-1.5
110	Cn1c(=O)n(CC(=O)Nc2cccnc2)c2ccccc21	1	1.6
111	Cc1ccc(Nc2c(-c3ccccc3)nc3nc[nH]n23)cc1	1	0.43
112	CCOc1ccc(NC(=O)N(CCCN2CCOCC2)Cc2cccs2)cc1	1	0.0097

Values by screen from the list:
CBX7 inh z-score, nos. 5–12, in order: 0.96, 1, 0.26, 2.2, -0.99, 1.6, 2, 1.1
